gsp antag = antagonizes gsp, the McCune-Albright syndrome mutation. Potency, µM (titrated, usually from 76.9 µM), for the others: at the highest dose activity change, negative = inhibition, most hits filed as inhibitors. gsp-mutant cells, cAMP HTRF, 30 min; control for the full effect not named in the record. hit rate 0.4% among 340,000; active = falling curve of any shape with a large fitted effect; inconclusive = falling curve, mostly with a smaller effect; inactive = flat or rising curve; cell line not stated here;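 note: intracellular cAMP measured with PDE inhibitor Ro 20-1724 present during compound exposure; potency is the fitted concentration of half-maximal effect; % is set by controls: 0 for no effect and ±100 for the full control effect; nearly all actives have a fitted effect of over 65% in size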
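Cells, 2000/well, grown 16–24 h in DMEM 10% FBS with 0.5 mg/ml G418, then compounds plus […] (300 uM addition stock), 30 min at 37C. cAMP read by HTRF (cAMP-d2 and anti-cAMP antibody-K in lysis buffer) after 30 min RT.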
PINK1 modulator = changes PINK1 expression | Potency, µM (series often up to 76.6 µM), inactives show at the top dose activation (PINK1 increase), most hits filed as activators | AID 624263 | PINK1 immunofluorescence, high-content cytometry, 24 h | hit rate 0.2% among 410,000; active = well fitted activation curve with a large enough effect; inconclusive = small, poorly fitted or top-dose-only effect; inactive = flat fitted curve, though single readings scatter; cell line not stated here;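 note: potency is the fitted concentration of half-maximal effect; % of control where 0% means no effect; nearly all actives have a fitted effect of over 65% in size; a mitochondrial uncoupler was the plate control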
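Compound titrations (5 concentrations, 24 h) on a stable cell line; DMSO and CCCP controls. Endpoint: fixed-cell PINK1 immunofluorescence with mitochondrial, cell and nuclear markers, scanned by microplate cytometer.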
Sfp PPTase inh = inhibitors of Bacillus subtilis Sfp phosphopantetheinyl transferase. Biochemical Sfp PPTase activity, qHTS. Potency, µM, for inactives: max response, negative = inhibition, actives largely listed as inhibitors. Q9F4F7. hit rate 3.5% among 310,000. AID 1490; active = well fitted inhibition curve with a large enough effect; inconclusive = small, poorly fitted or top-dose-only effect, or another doubt; inactive = no such curve, though single readings can be large or run the other way;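 note: the enzyme is Sfp with the accession as filed and its product quenches rhodamine fluorescence; potency is the fitted concentration of half-maximal effect; 0% = enzyme reaction without inhibitor and -100% = no enzyme wells; top concentration of the series not given in the record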
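Reaction rates are the 30-min fluorescence difference (ex 525, em 598 nm) in wells containing 15 nM Sfp, 5 uM rhodamine-CoA and 12.5 uM BHQ-2-YbbR at pH 7.6 with 10 mM MgCl2.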
D2 agonist = human D2 receptor agonism in beta-arrestin assay; activation, % (no concentration beside the values); DiscoveRx PathHunter D2 beta-arrestin, luminescence, 90 min; 100% = 57 uM dopamine signal; hit rate 0.084% among 360,000; in the data active = activation above about 40%; inconclusive = about 15% to 40%; inactive = below about 15%; note: compound concentration not given in the record; the text of the record calls up to 30% inactive
Target sequence (P14416 whole entry, looked up): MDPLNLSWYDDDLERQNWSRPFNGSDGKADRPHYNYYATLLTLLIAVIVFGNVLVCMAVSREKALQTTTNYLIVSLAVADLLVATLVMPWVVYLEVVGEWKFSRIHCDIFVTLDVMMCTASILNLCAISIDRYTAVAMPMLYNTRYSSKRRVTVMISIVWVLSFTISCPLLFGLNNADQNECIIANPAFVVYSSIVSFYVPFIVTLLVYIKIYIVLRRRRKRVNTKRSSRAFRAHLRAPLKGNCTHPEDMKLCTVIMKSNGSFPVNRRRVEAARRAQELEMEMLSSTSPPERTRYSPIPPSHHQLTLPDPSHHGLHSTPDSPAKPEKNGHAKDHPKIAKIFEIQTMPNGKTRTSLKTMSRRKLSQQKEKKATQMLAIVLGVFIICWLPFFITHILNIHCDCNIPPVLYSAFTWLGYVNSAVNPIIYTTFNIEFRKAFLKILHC
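DiscoveRx PathHunter D2 beta-arrestin cells (2,100/well) attached overnight, then compound-stimulated 90 min at 37 C in HBSS/10 mM HEPES/0.1% Tween-20 buffer; beta-galactosidase complementation read by luminescence after 1 h at ambient temperature. Dopamine 57 uM final (EC100) as control.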
ClpP mod = qHTS Assay for Activators of ClpP. ATP-dependent Clp protease proteolytic subunit (Bacillus subtilis (strain 168)), P80244. purified B. subtilis ClpP, FRET peptide cleavage, 20 min. Potency, µM (top dose mostly 57.5 µM), for inactives: top-dose activity change, negative = active. hit rate 1.9% among 340,000. AID 651965, 2013; active = well fitted falling curve with a large enough effect; inconclusive = small, poorly fitted or top-dose-only effect; inactive = no such curve, though single readings can be large or run the other way; note: potency is the fitted concentration of half-maximal effect; the source files actives as falling curves though it sought activators and does not explain the sign; nearly all actives have a fitted effect of over 65% in size; many hits overshoot -100%
Target sequence (P80244 whole entry, looked up): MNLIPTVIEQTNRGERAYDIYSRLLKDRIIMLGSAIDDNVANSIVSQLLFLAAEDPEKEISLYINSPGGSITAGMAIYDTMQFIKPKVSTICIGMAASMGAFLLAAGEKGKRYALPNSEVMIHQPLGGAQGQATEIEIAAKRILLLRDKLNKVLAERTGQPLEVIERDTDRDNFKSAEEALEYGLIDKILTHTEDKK
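Buffer: 100 mM Tris/HCl pH8, 100 mM KCl, 0.05% low protease BSA, 2.5% glycerol, 0.01% Tween-20. ClpP 10 microg/mL final; 20 min RT; delta FRET normalized to ADEP and DMSO controls.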
gsp agonist = activates gsp, the McCune-Albright syndrome mutation. gsp mutant cells, cAMP HTRF, 30 min; control for the full effect not named in the record. hit rate 0.13% among 340,000. Potency, µM (top dose mostly 76.9 µM), without a hit: at the highest dose activation (cAMP increase), hits mostly activators; active = well fitted activation curve with a large enough effect; inconclusive = small, poorly fitted or top-dose-only effect, or another doubt; inactive = no such curve, though single readings can be large or run the other way; cell line not stated here;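 note: phosphodiesterase inhibitor Ro 20-1724 added with compounds to block cAMP breakdown; potency is the fitted concentration of half-maximal effect; nearly all actives have a fitted effect of over 60% in size; about a fifth of the inactives were tested at one dose only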
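Cells stably selected in G418 were plated at 2000/well, grown 16-24 hr, then given compounds in DMSO with the PDE inhibitor […] (300 uM solution added) for 30 min at 37C; cAMP was read by HTRF.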
Menin MLL FP FL = menin-MLL binding inhibition, fluorescein peptide; Fluorescence polarization, fluorescein-MLL peptide displacement from menin; FP activity change, % at 61.4 µM; 290,000 tested, under 10 active; inconclusive = falling polarisation curve, or a change in total fluorescence; inactive = total fluorescence flat and polarisation flat or rising; no compound was filed as active; the % refers to the polarisation; negative = inhibition;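 note: % of control where 0% means no effect; inhibitors lower the polarisation; unlabelled MLL peptide was the positive control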
Numbers without * were called inactive; ? = inconclusive; · = not tested or not shown; [ ] = dose if it differs, or a comment.

SMILES | gsp antag | PINK1 modulator | Sfp PPTase inh | D2 agonist | ClpP mod | gsp agonist | Menin MLL FP FL
Cc1ccnc2nc(C(=O)OCC(=O)Nc3ccc4c(c3)OCCO4)nn12 | 8% | -0.6% | · | -0.6 | · | 19% | ·
CCOC(=O)c1c(C)n(C)c2ccc(OC)c(NC(=O)CCN3CCC(Cc4ccccc4)CC3)c12 | -1% | -0.8% | -18% | -3.1 | -2.0% | 23% | 3.7
CCOc1ccccc1N1CSC2=C(C#N)C(c3c(OC)ccc4ccccc34)CC(=O)N2C1 (stereo unspecified) | -11% | 1.0% | 3.2µM* | -0.3 | -2.3% | -46%[inhibitor] | 17
Nc1n[nH]c(-c2ccccc2)n1 | 6% | -1.1% | 10% | 1.1 | -21% | 11% | -1.0
CCOc1ccc(S(=O)(=O)N2CCOCC2)cc1NC(=O)CSC(=S)N1CCCC1 | -6% | 1.2% | · | -3.2 | 1.4% | -12% | ·
CCCNS(=O)(=O)c1ccc(OCC(=O)N2CCC(C(=O)OCC)CC2)cc1 | -7% | -1.0% | 22% | -0.4 | -1.9% | -1% | 3.4
CN1/C(=C\C(=O)Nc2cccnc2)c2ccccc2CC1(C)C | 18% | 2.3% | 0% | -1.1 | -1.8% | 4% | 1.0
O=C(CNC(=O)c1cc(=O)[nH]c2ccc(S(=O)(=O)N3CCOCC3)cc12)Nc1ccc(F)c(F)c1 | 3% | 3.6% | · | -1.8 | -3.7% | 1% | ·
OC1CCN(Cc2cccc(Oc3ccccc3)c2)CC1 | 10% | 0.1% | 9% | -3.4 | -3.5% | 3% | 1.9
Cc1sc(NC(=O)c2ccc(F)cc2)c(CN2CCCCCC2)c1C | 1% | 0.6% | -3% | -4.6 | 2.7% | -13% | 18
CCc1nnc(NC(=O)c2cccnc2SC)s1 | 10% | -0.8% | 16% | 0.9 | 0.1% | -26% | -2.0
CC(C)CN1C(=O)/C(=C/c2cccs2)NC1=S | -4% | 5.5%[38.3 µM] | 11% | -2.1 | 0.1% | 2% | 7.3
CN(C)C(CNC(=O)c1ccco1)c1cccs1 (stereo unspecified) | 10% | -1.1% | · | -4.7 | 11µM* | 8%[15.4 µM] | ·
Oc1[nH]c2ccccc2c1N=Nc1cccc(Cl)c1 | -4% | 5.3% | 2% | -4.7 | 0.6% | -25% | ?
CN(CC(=O)NCC1CCCCC1)CC(=O)Nc1ccc(F)cc1 | 8% | -0.2% | · | -4.0 | -0.1% | 23% | ·
CCOC(=O)N1CCC(NC(=O)C2CCCN(C(=O)c3cc4sccc4n3C)C2)CC1 (stereo unspecified) | -10% | -0.4% | 20% | -8.6 | -2.8% | -40%[inhibitor] | 0.9
CCCn1c(SCC(=O)c2cc(OC)ccc2OC)nnc1-c1ccco1 | -20% | 0.4% | -21% | -4.4 | -1.2% | -22% | -0.7
Cn1nnnc1SCC(=O)N1c2ccccc2CCc2ccccc21 | -16% | -1.8% | 7% | -0.3 | -3.0% | 2% | 1.3
COc1cccc(C(=O)NCCSc2ccc(F)cc2)c1 | -15% | 8.5% | 4% | -2.7 | · | -3%[15.4 µM] | -2.5
COC(=O)c1cc(CSc2nc3ccccc3c(=O)n2C)oc1C | 35µM* | 7.7% | -37% | 11 | · | -16% | ·
CCC(C)c1c(O)nc(SCC(=O)N2CCCCC2)[nH]c1=O (stereo unspecified) | 7% | 0.1% | -1% | -6.3 | 2.1% | 0% | -11
CC(=O)N1CCC(N2CCN(c3ccccc3F)CC2)CC1 | -1% | -3.9%[38.3 µM] | 19% | 41* | -2.5% | 7% | -1.1
CN1CCN(S(=O)(=O)c2ccc(NC(=S)NC(=O)C3CC3)cc2)CC1 | -8% | -1.8% | 22% | 2.7 | 0.7% | -26% | 6.5
O=c1[nH]c2cc(S(=O)(=O)CCO)ccc2o1 | 8% | 1.2% | 20% | -12 | 0.7% | -12% | -1.7
CCOC(=O)CSc1nnc(CNC(=O)c2cccs2)n1-c1ccccc1 | 4% | 3.2% | 0% | -0.6 | 10µM* | -54%[inhibitor] | -2.0
O=C(Nc1nccs1)C1CC2CCC1C2 (stereo unspecified) | 4% | -2.4% | 8% | -4.4 | 0.4% | -26% | 2.6
COc1ccccc1C(C#N)N1N=C(C)CC1(C)C (stereo unspecified) | ? | 0.6% | 0% | 2.4 | · | -6% | 0.5
Cc1cc(C)c2oc(=O)cc(CN3CCN(Cc4ccc5c(c4)OCO5)CC3)c2c1 | -3% | 0.9% | 6% | 6.5 | ? | 0% | 0.1
O=C(CN1CCOCC1)Nc1cc([N+](=O)[O-])ccc1Cl | 10% | 1.2% | 16% | 2.3 | · | 36%[15.4 µM] | -1.6
Cc1ccc2c(CN3CCN(Cc4ccc5c(c4)OCO5)CC3)cc(=O)oc2c1C | -7% | · | 2% | -1.1 | -17% | -20% | 4.3
CCc1nnc(NC(=O)CSc2nc(-c3ccccc3)c(-c3ccccc3)o2)s1 | 4% | 1.5% | 7% | -1.2 | 1.2% | -6% | 1.4
CC(C)CN(C(=O)COC(=O)c1ccc2c(c1)OCO2)c1c(N)n(Cc2ccccc2)c(=O)[nH]c1=O | -1% | 6.2% | · | -3.4 | -4.4% | -58% | ·
O=C(Nc1cccc2c1CCCC2)c1ccc(Cl)c([N+](=O)[O-])c1 | -8% | -1.0% | 19% | -4.9 | -2.3% | 10%[15.4 µM] | 5.7
O=S(=O)(NC(=NCc1ccccc1)c1ccc(F)cc1)c1ccc(Cl)cc1 | -5% | 3.7% | 15% | -2.9 | -0.9% | 0% | 0.3
Cc1ccc(-c2nnn(CC(=O)N(CC(=O)NC3CCCCC3)c3ccccc3F)n2)o1 | -2% | 0.3% | -5% | -8.6 | 0.1% | -7%[15.4 µM] | -5.2
O=C1Nc2ccccc2CN2C(=O)c3cc(Cl)ccc3NC(=O)C12 (stereo unspecified) | · | 1.0% | · | -3.7 | -5.0% | · | ·
COCCC(=O)N1CCc2ccc(NC(=O)c3ccc(C(F)(F)F)cc3)cc2C1 | -11% | 1.1% | -3% | -3.1 | 1.6% | -2% | 3.0
CC(C)C(C(=O)N1CCOCC1)N1C(=O)c2ccccc2C1=O (stereo unspecified) | 15% | -0.9%[38.3 µM] | 14% | -1.5 | -2.6% | 7% | 6.8
CCOc1ccc2ncc(C(=O)c3ccc(OC)cc3)c(N3CCN(CC)CC3)c2c1 | ? | -2.2% | 3% | -1.8 | -2.5% | ? | -6.7
CC(C)(C)OC(=O)NNC(=O)NC12CC3CC(CC(C3)C1)C2 | 3% | -0.4% | 14% | 5.0 | -3.9% | -43%[inhibitor] | -1.0
Cc1cccc(NC(=S)N=Nc2c(O)[nH]c3ccccc23)c1 | -18% | 11% | 18% | -6.2 | -13% | -16% | 5.1
CC(=O)c1cccc(-c2ccnc3c2CC(C(=O)NCC2CC2)O3)c1 (stereo unspecified) | · | 6.5% | · | -2.4 | -0.2% | · | ·
O=C1Nc2cc(C(=O)NCCN3CCCCCC3)ccc2S/C1=C/c1ccccc1F | · | -1.6% | · | 5.6 | -0.9% | -15% | ·
CCc1ccc(-c2nc(SCC(=O)NC3CC3)n[nH]2)cc1 | -8% | 3.2% | · | -2.2 | · | 34%[15.4 µM] | ·
COC(=O)c1ccc(NC(=O)Nc2cccc(F)c2)cc1 | 2% | ? | 20% | 0.8 | · | -5% | 1.0
Cc1nc2ccc(NC(=O)CCS(=O)(=O)c3ccc(Cl)cc3)cc2s1 | -26% | 2.1% | -8% | 2.1 | -2.3% | -36%[inhibitor] | ?
CC(C)(C)S(=O)(=O)c1cnc2c(-c3ccsc3)cnn2c1N | 9% | 10% | -8% | 2.4 | · | -9%[15.4 µM] | -3.2
S=C(NCCc1ccccc1)N/N=C/c1ccccc1Cl | 10% | -0.8% | -1% | 1.9 | -7.4% | 19% | 0.2
CCCCc1oc2c(c(=O)c1C)C(=O)CC(c1ccccc1)C2 (stereo unspecified) | -15% | · | -2% | -1.3 | 1.7% | 0% | 3.3
CCC1(C)Cc2c(sc3nnn(CC(=O)Nc4ccc(Cl)cc4)c(=O)c23)CO1 (stereo unspecified) | -17% | 4.1%[38.3 µM] | 16% | 0.0 | 0.8% | 5% | 5.2
CC1=C(C(=O)OCC2CCCCC2)C(c2ccc(F)cc2)NC(=O)N1 (stereo unspecified) | -2% | 0.8% | 10% | 5.1 | 1.0% | -30% | 0.8
C=CCC(C(=O)OC)(C(=O)OC)c1ccc([N+](=O)[O-])cc1[N+](=O)[O-] | 9% | 1.7% | 18% | ? | · | 2%[15.4 µM] | -5.3
N#Cc1cccc(NC(=O)CSc2ccccc2)c1 | 1% | 0.5%[38.3 µM] | 17% | -5.0 | -3.9% | 9% | 0.8
CCN(CC)CCCNC(=O)C1CCN(C(=O)c2cc3sccc3n2Cc2ccc(F)cc2)CC1 | 5% | -7.2%[38.3 µM] | -6% | 4.5 | -1.0% | -4% | -0.6
CN(Cc1ccccc1F)C(=O)CN1CCN(S(=O)(=O)c2ccc3c(c2)OCCCO3)CC1 | -27% | 2.7% | · | -3.2 | -0.4% | 6% | ·
Cc1ccc(S(=O)(=O)N2C[C@]3(O)C[C@@H]4C(=O)N(c5ccccc5)C(=O)[C@@H]4C[C@]3(OC(=O)NC3CC3)C2)cc1 | · | 0.1% | · | -7.9 | -0.4% | -30%[inhibitor] | ·
O=C(CSc1nnnn1-c1ccccc1)Nc1ncc(Cc2ccccc2Cl)s1 | 4% | 0.3% | -5% | -3.5 | · | 15%[15.4 µM] | 4.4
COc1ccc(NC(=O)c2ccc3nccnc3c2)cc1 | 5% | 3.7% | 8% | -1.6 | 1.7% | 11% | -0.9
COc1ccc(Cl)c(N2CCN(CCCNC(=O)Nc3ccc(C)cc3)CC2)c1 | 12% | -3.8% | 8% | 3.3 | -3.0% | -18% | -1.5
c1ccc(C(c2ccccc2)N2CCN(Cc3nnnn3C3CCCCC3)CC2)cc1 | -18% | -0.3% | 2% | -3.6 | -5.3% | -21% | -3.2
